# Screening data: PubChem BioAssay, Johns Hopkins Ion Channel Center
# KCNQ2 enhance = potentiators of rat KCNQ2 potassium channel; O88943; CHO-K1 KCNQ2, FluxOR thallium flux fluorescence; hits give high values; B-score at 10 µM; 310,000 compounds, 0.54% hits; AID 2239;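 active = fluorescence ratio B-score at least 3 SD of library B-scores, with initial fluorescence B-score within 3 SD, cut at about 5.3 in these data; same plate scores as AID 2156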;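 note: B-score of peak minus minimum over baseline fluorescence ratio after K+ and Tl+ stimulus; positive B-score means potentiation of KCNQ2 with more thallium influx and brighter signal; only the inactives scoring about 0 or higher are listed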
# Target sequence (O88943 whole entry, looked up): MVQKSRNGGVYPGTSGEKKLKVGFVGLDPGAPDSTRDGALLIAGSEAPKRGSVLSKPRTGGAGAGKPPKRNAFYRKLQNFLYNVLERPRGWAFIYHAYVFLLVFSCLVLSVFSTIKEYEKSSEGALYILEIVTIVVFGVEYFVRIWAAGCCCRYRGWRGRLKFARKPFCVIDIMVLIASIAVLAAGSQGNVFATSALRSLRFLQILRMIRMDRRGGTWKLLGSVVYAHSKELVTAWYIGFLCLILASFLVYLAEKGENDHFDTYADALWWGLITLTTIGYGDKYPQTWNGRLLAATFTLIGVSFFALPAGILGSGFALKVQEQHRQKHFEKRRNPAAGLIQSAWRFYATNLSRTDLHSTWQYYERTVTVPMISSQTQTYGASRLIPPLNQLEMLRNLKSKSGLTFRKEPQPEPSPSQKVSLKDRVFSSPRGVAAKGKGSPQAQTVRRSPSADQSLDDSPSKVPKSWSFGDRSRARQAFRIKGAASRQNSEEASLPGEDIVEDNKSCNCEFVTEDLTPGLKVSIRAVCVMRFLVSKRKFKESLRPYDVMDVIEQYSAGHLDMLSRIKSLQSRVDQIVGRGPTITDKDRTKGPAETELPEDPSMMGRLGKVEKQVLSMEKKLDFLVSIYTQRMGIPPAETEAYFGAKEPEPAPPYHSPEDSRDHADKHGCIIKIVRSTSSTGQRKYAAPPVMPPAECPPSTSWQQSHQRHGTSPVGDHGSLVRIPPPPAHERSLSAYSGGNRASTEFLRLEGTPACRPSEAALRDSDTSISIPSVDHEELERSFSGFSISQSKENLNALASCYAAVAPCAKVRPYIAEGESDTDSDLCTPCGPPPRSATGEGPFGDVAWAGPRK
# KCNQ2 enhance baseline = also measured in KCNQ2 enhance; calls as there; B-score; compound at 10 µM; measured here: initial fluorescence intensity artifact check;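 brightness before thallium and not channel activity; 0 = typical well and far values either way flag optical interference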
# The depositor's hits bear a star.
SMILES	KCNQ2 enhance	KCNQ2 enhance baseline
C/C(=N\S(=O)(=O)c1ccc(C)cc1)N1CCCCC1	1.3	0.79
Cc1ccc2c(c1)NC(=O)C(CC(=O)NCCCN1CCCCC1)O2 (stereo unspecified)	2.2	-0.57
O=C(O)C1C2C=CC(C2)C1C(=O)N1CCN(CCO)CC1 (stereo unspecified)	0.67	-0.38
Cc1nc2[nH]c(=S)[nH]c2cc1Br	0.27	0.08
CN(C(=O)N1CCN(S(=O)(=O)c2ccccc2)CC1)c1ccccc1	3	-2.7
Cc1cccc(C)c1OCC(=O)Nc1ccncc1	3	-1.8
C=CCn1c(Oc2ccc(C=O)cc2OCC)nc2c1c(=O)n(C)c(=O)n2C	2.4	0.05
NC(=O)CC(NC(=O)Cc1cccc2ccccc12)c1ccc(N2CCN(c3ccccn3)CC2)c([N+](=O)[O-])c1 (stereo unspecified)	0.26	-3.1
COc1cc2c(cc1NC(=O)COCC(=O)O)oc1ccccc12	0.31	0
C/C(=N\NC(=O)c1ccc(O)cc1)c1ccc2c(c1)Nc1ccccc1S2	1.6	-2
CCO[C@H]1OC(C(=O)N2CCN(C)CC2)=C[C@@H](c2coc3ccccc3c2=O)[C@@H]1CCCO	0.03	-0.29
Cc1ccc(-c2cc(Cc3ccncc3)c(=O)[nH]n2)cc1	1.5	-1.4
COCCNC(=O)c1cccc(OC2CCN(Cc3ccc(OC(F)F)cc3)CC2)c1	1	-0.37
CC(=O)NC(C)C(=O)OCC(=O)c1ccc(-c2ccccc2)cc1 (stereo unspecified)	0.96	0
COc1ccccc1CCNC(=O)NC1CCCCC1	0.01	1.4
CCOC(=O)Nc1ccc2nc3n(c(=O)c2c1)CCCCC3	2.2	-1.5
Cc1nn(-c2ccccc2)c(N2CCCC2)c1/C=N/NC(=O)c1cc(-c2ccccn2)nc2ccccc12	0.03	-1.3
Cc1ccc(OCC(O)CN2CCN(CC(O)COc3ccc(C)cc3Cl)CC2)c(Cl)c1 (stereo unspecified)	1.2	0.78
Cc1csc(NC(=O)CSc2nnc(-c3cccs3)n2C)n1	0.17	-0.99
Cc1ccccc1N=Nc1ccc(O)c2ncccc12	1.6	-0.06
CC(C)(C)N1CCC1C(N)=O (stereo unspecified)	0.06	0.04
COC(=O)c1c(C)[nH]c(C(=O)CSc2ccc(Cl)cc2)c1C	0.09	0.65
O=C1COc2ccccc2N1Cc1ccc(Cl)cc1	1.2	-0.78
COC(=O)C1=CN(Cc2ccc(OC)c(OC)c2)C=C(C(=O)OC)C1c1cccs1	0.46	-0.08
CN(CCOc1ccc(Cl)cc1)C(=O)C1CCN(C(=O)c2ccc(F)cc2)CC1	0.39	-0.73
O=C(OCC1CC(c2ccccc2)=NO1)c1ccco1 (stereo unspecified)	1.5	-0.25
O=C(CSc1nnc(CNC(=O)c2ccccc2F)o1)NCc1ccco1	0.23	-1.1
O=C(NCCc1c[nH]c2ccccc12)C(=O)c1c[nH]c2ccccc12	2.7	-0.18
Cc1ccc(-n2c(=O)cc(N3CCc4ccccc4C3)[nH]c2=O)cc1	0.04	-1.5
Cc1ccc(NC(=O)CS(=O)(=O)c2cn(CC(=O)N3CCOCC3)c3ccccc23)cc1	0.24	0.01
COc1ccc(C(=O)Oc2cc(OC)cc(OC)c2C(C)=O)cc1	0.29	0.61
Cc1ccc(C)c(NS(=O)(=O)c2cc(C(=O)NCc3ccncc3)ccc2C)c1	0.52	-0.02
O=C(COc1ccc(Br)cc1)NC1CC1	0.88	-1.3
O=C(CSc1nnc2ccccn12)Nc1nsc(-c2ccccc2)n1	1.9	-0.1
Cc1cc(=O)oc2cc(OCC(=O)NC3CCN(Cc4ccccc4)CC3)ccc12	0.93	0.33
CC(C)C(NC(=O)c1cccs1)C(=O)NC1=NCCS1 (stereo unspecified)	0.06	-0.1
CCCCc1cc(=O)oc2cc(C)cc(OCC(=O)O)c12	0.49	0.15
COC(=O)c1cn(-c2ccccc2)nc1-c1ccc(OC)c(OC)c1	0.03	-0.63
CC1CCCC(NC(=S)Nc2cccc(S(=O)(=O)N(C)C)c2)C1C (stereo unspecified)	1.8	-0.41
Cn1ccnc1C1CCCCN1Cc1nc(Cc2ccccc2F)no1 (stereo unspecified)	0.38	-0.98
O=C(NCc1cccnc1)Nc1cccc(Cl)c1	0.67	2.4
C=CCOc1cccc(CNc2cccc(C(=O)O)c2)c1	2.1	0.92
CCC1Oc2ccc(C)cc2N(CC(=O)NCCCN2CCOCC2)C1=O (stereo unspecified)	1.5	-2
CC(C)=C1C2CCC1C1C(=O)N(c3nc(-c4ccccc4)c(C)s3)C(=O)C21 (stereo unspecified)	0.99	-0.04
COC(=O)c1c(NC(=O)CSc2nnc(-c3ccco3)n2C)sc(C)c1C	0.8	0.72
COc1ccc(-c2nn(-c3ccccc3C)cc2CNC(C)Cn2cncn2)cc1F (stereo unspecified)	0.11	-0.41
C=C(C)CN1C(=O)C2(OCCO2)c2ccccc21	0.24	-0.73
CCN(CC(=O)N1CCN(Cc2ccccc2)CC1)S(=O)(=O)c1ccc(F)cc1	1.1	-0.86
Cc1cc(NC(=O)CSc2nnc(C3COc4ccccc4O3)o2)no1 (stereo unspecified)	0.02	1.7
Cn1nc(C(=O)NCc2ccc(F)cc2)c2c1-c1ccccc1S(=O)(=O)C2	1.3	-0.87
CN1C(=O)/C(=C/c2ccc(C(=O)Nc3ccc(O)cc3C(=O)O)cc2)SC1=S	2.4	-1.9
Cc1cc(-c2csc(Nc3ccccn3)n2)ccc1F	0.9	0.31
CCC(=O)NC(C)C(c1cccs1)N1CCN(c2ccccc2)CC1 (stereo unspecified)	0.03	0.79
Cc1cccn2c(=O)c3cc(C(=O)NCC4CCCO4)c(=N)n(CC4CCCO4)c3nc12 (stereo unspecified)	1.1	-0.01
COc1ccc(N2CC(C(=O)NCCN3C(=O)S/C(=C\c4cccnc4)C3=O)CC2=O)c(OC)c1 (stereo unspecified)	0.75	0.54
Cc1ccc(S(=O)(=O)Nc2nc(N)n(-c3ccccc3)n2)cc1	0.03	-0.58
O=S(=O)(Nc1ncccn1)c1ccc(NC(=S)Nc2cccc(Cl)c2)cc1	0.4	0.16
COc1cccc(C(=O)Nc2ncc3c(n2)CC(C)CC3=O)c1 (stereo unspecified)	0.7	-1.7
CCC1(CC)C(=O)NC(=O)NC1=NCCc1c[nH]c2ccccc12	0.09	-1.7
CC(=O)NC12CC3CC(C1)CC(C(=O)Nc1nc4c(C)cccc4s1)(C3)C2	1.7	0.36

# Other structures
SMILES	KCNQ2 enhance	KCNQ2 enhance baseline
COc1ccccc1-n1cnnc1SCC(=O)N1CCN(C(=O)c2ccco2)CC1	0.72	0.96
C#CCNC(=O)C1=C[C@@H](c2ccc3c(c2)OCO3)C[C@@H](OCc2ccc(CO)cc2)O1	0.34	0.03
COc1ccc(/C=N/S(=O)(=O)c2ccc(C)cc2)cc1	0.85	-1
O=C(C1=C(O)C(=O)N(Cc2ccccc2)C1c1cccnc1)c1ccco1 (stereo unspecified)	0.33	-0.3
COc1ccc2cnn(-c3ccc(OC(F)(F)F)cc3)c(=O)c2c1OC	0.5	-0.12
CCOC(=O)C1CCN(CC(=O)Nc2ccc(S(=O)(=O)N3CCC(C)CC3)cc2)CC1	1.3	-1
O=C(NCc1ccccc1F)C1CCCN(c2cnccn2)C1 (stereo unspecified)	0.79	-0.83
CCc1ccc(CNC(=O)CCCn2c(=O)c3cccn3c3cccnc32)cc1	0.43	-5.5
c1ccc2[nH]c(CN3CCCCCC3)nc2c1	1.6	-0.28
O=c1nc(-c2ccccc2)c2cc(Br)ccc2[nH]1	1.7	-0.41
COC(=O)c1sccc1-n1cccc1C(=O)C(=O)N1CCCCC1	1.7	-2.1
O=C(Nc1ccc2c(c1)CCC2)c1ccc(F)cc1	3.5	0.15
c1ccc2[nH]c(SCCN3CCOCC3)nc2c1	1.1	0.1
CN(C)C(=O)CSc1nnc(CCCCCNC(=O)OC(C)(C)C)o1	1.4	-2.8
CCOC(=O)c1cccc(N2C(=O)C3C(C2=O)C2C=CC3C23CC3)c1 (stereo unspecified)	0.33	2.5
Cc1cc(C)c(C)c(OCC(=O)NCC2CCCO2)c1 (stereo unspecified)	0.64	2.1
COC(=O)[C@H](CCSC)NC(=O)NCCC1=CCCCC1	1.7	-0.15
CCCCn1nnc(NC(=S)NC(=O)c2ccc(-c3cccc(Cl)c3Cl)o2)n1	4.5	-1.4
CC(C)n1cnnc1SCC(=O)Nc1cccc(S(=O)(=O)N(C)c2ccccc2)c1	0.31	0.49
COc1cc(C2NCCC(=O)C2(C)C)cc(OC)c1OC (stereo unspecified)	0.19	-0.43

# Following part:
# Each structure is followed by: KCNQ2 enhance	KCNQ2 enhance baseline
COc1ccc(NS(=O)(=O)c2cccc(C(=O)NNC(=O)c3ccc(NC(C)=O)cc3)c2)cc1
  0.18	0.04
CCC(=O)N(Cc1cc2cc(OC)ccc2[nH]c1=O)c1cccc(C)c1
  0.06	-0.86
O=C(C1CCCN1S(=O)(=O)c1ccc(Cl)cc1)N1CCCCC1 (stereo unspecified)
  1.3	-0.36
Cc1ccc(C(=O)N2CCN=C2SCc2ccc([N+](=O)[O-])cc2)cc1C
  0.74	2.2
CCOC(=O)c1cc(-c2ccc(Cl)s2)[nH]n1
  0.35	0.5
COc1ccccc1S(=O)(=O)CC(O)COc1ccc(C#N)cc1 (stereo unspecified)
  2.2	-0.61
COc1ccc(/C=C/C(=O)NCCOc2ccccc2OC)cc1
  0.94	-2.2
COc1cc2c(cc1/C=C/C(=O)O)OC(C)C2 (stereo unspecified)
  0.05	0.52
CCOc1ccc(-c2nnc3ccc(SCC(=O)N4CCCCC4)nn23)cc1
  0.66	-1.9
Cc1nc2ccccc2c(=O)n1NC(=O)c1ccc(C(C)(C)C)cc1
  0.57	0.79
O=C(CCC1CCCCC1)Nc1ccccc1-c1ccccc1
  12*	0.02*
Cc1ccc(-c2cc(C(=O)NN)n[nH]2)o1
  0.16	-0.24
CN(CCc1ccccn1)C(=O)Nc1ccc(F)cc1
  0.81	-1.1
CC(=O)Nc1ccc(C(=O)OCc2ccc(Cl)c(Cl)c2)cc1
  0.7	0.36
COc1ccc(N(C(=O)CS(=O)CC(=O)Nc2ccc(F)cc2)C(C(=O)NC2CCCCC2)c2cccs2)cc1 (stereo unspecified)
  0.17	2.1
Cn1c(CCN2CCCCC2)nc2cc(NC(=O)COc3ccc([N+](=O)[O-])cc3)ccc21
  0.17	-0.29
CCc1ccc(CCC(=O)Nc2ccc(OC)cc2)o1
  1.3	-1.5
COc1ccc(-c2noc(-c3cc4ccccc4oc3=O)n2)cc1
  1.8	0.03
CC12CCC(C(=O)N(CCC#N)CCC#N)(CC1=O)C2(C)C (stereo unspecified)
  0.74	-0.92
COc1ccc(NC(=O)COC(=O)C2CCC2)cc1Cl
  1.1	0.02
Cc1cc(NC(=O)CSc2nnc(-c3ccoc3C)n2N)no1
  1	0.57
O=[N+]([O-])c1ccccc1N/N=C/c1cccc(O)c1O
  0.64	-1.6
CCOC(=O)C(CC)Sc1nc(N)c(NC(=O)c2ccc(OC)c(OC)c2)c(=O)[nH]1 (stereo unspecified)
  0.33	-0.11
Cn1cccc1-c1cc(C(=O)N/N=C/C=C/c2ccccc2)[nH]n1
  0.58	-0.11
O=C(CN(Cc1ccccc1)C(=O)CSc1nnc(COc2ccccc2)o1)NC1CCCC1
  0.47	0.09
CCCCN(C(=O)CCC(=O)O)C1CC(=O)N(c2ccc(OCCC)cc2)C1=O (stereo unspecified)
  0.45	-2.6
CCOC(=O)c1c(NC(C)=O)sc2c(OCC(O)CN(CC)CC)c(Br)ccc12 (stereo unspecified)
  3.7	-0.21
O=C1NC(c2cccs2)Nc2sc3c(c21)CCCC3 (stereo unspecified)
  0.02	1.2
COc1cc(C(=O)OC(C)CN2CCN(C)CC2)cc(OC)c1OC (stereo unspecified)
  0.76	-0.63
CC(=O)c1cccc(NC(=O)C2CCCN(S(=O)(=O)c3cccc4nonc34)C2)c1 (stereo unspecified)
  0.64	0.38

# Profiles from above. Order of values: KCNQ2 enhance | KCNQ2 enhance baseline
# `Cc1ccc(S(=O)(=O)Nc2nc(N)n(-c3ccccc3)n2)cc1` reads 0.03 | -0.58
# `Cc1cccn2c(=O)c3cc(C(=O)NCC4CCCO4)c(=N)n(CC4CCCO4)c3nc12` (stereo unspecified) reads 1.1 | -0.01
# `O=C(NCc1ccccc1F)C1CCCN(c2cnccn2)C1` (stereo unspecified) reads 0.79 | -0.83
# `Cc1cc(C)c(C)c(OCC(=O)NCC2CCCO2)c1` (stereo unspecified) reads 0.64 | 2.1

# Reprinted at random: 2 entries already listed
# Each structure is followed by: KCNQ2 enhance	KCNQ2 enhance baseline
COc1cc2c(cc1NC(=O)COCC(=O)O)oc1ccccc12
  0.31	0
COc1cc(C(=O)OC(C)CN2CCN(C)CC2)cc(OC)c1OC (stereo unspecified)
  0.76	-0.63

# Next part.
# Each structure is followed by: KCNQ2 enhance	KCNQ2 enhance baseline
Cc1ccc(S(=O)(=O)Nc2cc(=O)[nH]c(SCC(=O)Nc3ccccc3C(F)(F)F)n2)cc1
  1	0.09
COc1ccc(NS(=O)(=O)c2c(C)[nH]c(=O)[nH]c2=O)cc1OC
  0.71	-0.1
COc1cccc2c3c(c(C)nc12)CCN3c1ccccc1
  1.1	0.83
NC(=O)NC(=O)CN1C(=O)NC2(CCOc3ccccc32)C1=O (stereo unspecified)
  0.84	0.76

# Shown field by field: part of the list above
> CC1CCCC(NC(=S)Nc2cccc(S(=O)(=O)N(C)C)c2)C1C (stereo unspecified)
  KCNQ2 enhance = 1.8; KCNQ2 enhance baseline = -0.41

> Cn1ccnc1C1CCCCN1Cc1nc(Cc2ccccc2F)no1 (stereo unspecified)
  KCNQ2 enhance = 0.38; KCNQ2 enhance baseline = -0.98

> O=C(NCc1cccnc1)Nc1cccc(Cl)c1
  KCNQ2 enhance = 0.67; KCNQ2 enhance baseline = 2.4

# These rows are one share of the data, so the mix of outcomes need not match the whole.
